High-throughput results as filed in PubChem BioAssay.
VACV E9 pol inh = vaccinia E9 polymerase processive synthesis inhibition | normalized absorbance, % (no concentration beside the values) | AID 493162 | in vitro processive DNA synthesis, absorbance read-out; stronger effect = lower value; some inactives read as strong as hits | 0.94% of 46,000 active;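 active means replicate mean up to 90% and picked by the depositor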;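 further: 100% = median of the test wells of a plate; 100 nL library stock went into each well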
An asterisk follows results filed as active. These rows are one share of the data (hit frequency here may not be typical).

SMILES | VACV E9 pol inh
COc1cccc(CNC(=O)C(Cc2ccccc2)n2cccc2)c1 (stereo not given) | 105
COc1ccc2c(c1)c1c3n2CCNC3CCC1 (stereo not given) | 92
Cc1ccc2[nH]c(=O)c(CN(C3CCCCC3)S(=O)(=O)c3ccccc3)cc2c1 | 101
CCCCN1C(C)=NC(C(F)(F)F)(C(F)(F)F)C2=C1CC(C)(C)CC2=O | 109
Cc1nc2sccn2c(=O)c1S(=O)(=O)NCCC(C)C | 104
CCOC(=O)c1c(-c2ccccc2)oc2ccc(OCC)cc12 | 100
CCN(N)c1nc(Cl)cc(C)c1C#N | 100
CCOC(=O)/C=C(/C)Nc1nonc1NC(C)=O | 100
COc1ccc(C(=O)Nc2ccc(N3CCN(C(=O)OC(C)(C)C)CC3)nc2)cc1 | 92
Oc1ccc(-c2csnn2)cc1 | 93
FC(F)(F)c1cccc(Oc2cnc3ccccc3n2)c1 | 95
O=C1CCC/C1=C/c1ccccc1 | 97
Cc1cccc2sc(N(CCN(C)C)C(=O)c3ccc4ncsc4c3)nc12 | 98
O=C(Nc1ccccc1)Nc1ccc(Nc2ccccc2)cc1 | 100
Cc1ccccc1CN1C(=O)C(O)(CC(=O)c2ccccc2O)c2ccccc21 (stereo not given) | 97
O=C(NC1=NCCS1)Nc1ccc2snnc2c1 | 89
Cc1ccc(C)c2[nH]c(=O)c(CCNC(=O)c3cccs3)cc12 | 101
CN(C)c1nc(Nc2ccc(OC(F)(F)F)cc2)nc(NC(C)(C)C)n1 | 101
Cc1ccc2cc(CN(C(=O)c3cccc(Cl)c3)C(C)C)c(=O)[nH]c2c1 | 98
CC(C)Cn1c(CCNC(=O)C(C)(C)C)nc2ccccc21 | 102
CN=C1S/C(=C/c2cccn2-c2ccc(N(C)C)cc2)C(=O)N1C | 100
CC(=O)OCC(=O)Nc1cc(Cl)cc(Cl)c1 | 99
COc1ccccc1N/C=C(\C#N)c1ccc(Cl)cc1 | 81
Cc1nc2cc(NC(=O)c3ccc(S(=O)(=O)N(C)Cc4ccccc4)cc3)ccc2s1 | 100
COc1ccc(C#CC(=O)O)cc1 | 93
COC(=O)c1sc2c(C)cc(Cl)c(C)c2c1C(=O)Oc1ccccc1 | 108
O=C(O)CSCC(=O)NC1CCCc2ccccc21 (stereo not given) | 101
CC(C)(CO)NC(=O)c1ccccc1F | 101
Cc1ccc(-c2nc(C)sc2C)cc1 | 100
Cn1c(=O)c2c(ncn2CC(O)CO)n(C)c1=O (stereo not given) | 100
CCCNC(=O)CCc1c(C)nc2c(c1C)c(=O)n(C)c(=O)n2C | 78
CCN(CC)S(=O)(=O)c1cccc(-c2[nH]c3ccccc3[n+]2-c2ccccn2)c1 | 97
O=C(Nc1ccc(C(F)(F)F)cc1)N1CCC(C(F)(F)F)CC1 | 100
COc1ccccc1NC(=O)c1c(NCc2cccs2)sc2c1CCCCC2 | 106
O=C1Nc2ccccc2Oc2cc(Sc3ccccc3)ccc21 | 90
Clc1ccc(-c2cn3c4ccccc4nc3n2CCCNC2CCCCC2)cc1 | 101
CC(C)(C)Nc1nc2nonc2nc1NC(C)(C)C | 100
CCN(CC)C(=O)c1ccc(COc2cccc3ccccc23)o1 | 101
Nc1ccccc1-c1nnc(-c2ccc(-c3ccccc3)cc2)o1 | 66*
Cc1ccc(S(=O)(=O)Cc2ccc(C(=O)N3CCC4(CC3)OCCO4)o2)cc1 | 88
CCCCC1(C)Cc2ccccc2C(=O)N1 (stereo not given) | 100
COc1cc(OC)cc(C2SC(N)=C(C#N)C(N)=C2C#N)c1 (stereo not given) | 91
Nc1ccc(-c2nc3ccccc3[nH]2)cc1 | 95
O=C(NCc1cccs1)c1cc2c(=O)[nH]c3ccccc3c2s1 | 88
Cc1cc(C)cc(Oc2c(C(F)(F)F)oc3c(CN4CC(C)OC(C)C4)c(O)ccc3c2=O)c1 (stereo not given) | 100
CCCn1c2ccccc2c2nc3ccccc3nc21 | 97
CCSc1nc2ccc(NC(=O)c3ccccc3C(=O)O)cc2s1 | 97
CCOC(=O)C1=C(c2ccccc2)NC(SCC(=O)Nc2ccccc2)=C(C#N)C1c1ccco1 (stereo not given) | 103
CCc1ccc(NC(=O)c2cccc3c2C(=O)N(CC)C3)cc1 | 100
O=C(Nc1ccc(-c2nc3ccccc3s2)cc1)C1=COCCO1 | 108
O=C1c2ccccc2CN1C(CO)c1ccccc1 (stereo not given) | 110
CC(C)COC(=O)c1cn(C2CCCCC2)c2ccccc2c1=O | 99
OC(c1ccccc1)c1nc2ccccc2n1Cc1ccccc1 (stereo not given) | 105
CS(=O)(=O)OCCCCOS(C)(=O)=O | 100
O=C(NC1CCCCC1)c1ccc(NC2=NC3CS(=O)(=O)CC3S2)cc1 (stereo not given) | 104
CCc1c(C)nc2ccc(OC)cc2c1Cl | 104
Cc1cc(N(C)Cc2ccccc2)ncn1 | 103
Cc1ccc2nc(-c3ccc(NC(=O)C4CC4)cc3)sc2c1 | 100
Cc1ccc(COc2ccc3ccc(=O)oc3c2)cc1 | 101
Cc1cccc(N2C(=O)c3cccc4cccc(c34)C2=O)n1 | 103

Remaining list, next part.
SMILES | VACV E9 pol inh
COc1ccc(CC(=O)NC2=NC(=O)C(C)S2)cc1 (stereo not given) | 102
O=C(CCN1C(=O)c2ccccc2Sc2ncccc21)NC1CCCC1 | 102
CCOc1ccc(C(=O)Nc2ccc(-c3nn4c(C)nnc4s3)cc2)cc1 | 90
CC(C)(CO)NCc1cccs1 | 100
CCN=c1sc(C(=O)OC)cc(=O)n1CC | 94
Clc1cccc(-c2nc(-c3ccccn3)no2)c1 | 104
O=S(=O)(/N=C(\OC1CCCCC1)c1ccccc1)c1ccccc1 | 100
O=C1CCCC1c1cc(NS(=O)(=O)c2ccc(Cl)cc2)ccc1O (stereo not given) | 101
Cc1ccccc1OCC1Cn2c(nc3c2c(=O)[nH]c(=O)n3C)O1 (stereo not given) | 93
S=C1OC(c2ccccc2)=C/C1=C\N1CCCCC1 | 99
COc1ccc2c(C)cc(N3CC(C)OC(C)C3)nc2c1 (stereo not given) | 100
Nc1ccc(F)cc1S(=O)(=O)Nc1ccc(Br)cc1 | 101
Cc1nn(C(=O)c2ccc(F)cc2)c(N)c1-c1ccccc1 | 100
Oc1ccc(/C=N/c2nccs2)cc1 | 100
CCc1ccc(NC(=O)CCS(=O)(=O)c2ccc(Br)cc2)cc1 | 110
Cc1cc(NC(c2ccccn2)c2c(C)[nH]c3ccccc23)no1 (stereo not given) | 102
CCNC(=O)/C(=N\O)c1ccccc1 | 100
CCOc1cc2c(cc1/C=C(\C#N)c1ccc(C(F)(F)F)cc1)OCO2 | 100
NC(=O)/C=C\c1cn(-c2ccccc2)nc1-c1ccc2c(c1)OCCO2 | 96
C/[N+]([O-])=C\c1ccc(C#N)cc1 | 96
COC(=O)c1ccc(NC(=O)c2ccc(Cl)cc2)s1 | 98
CC[n+]1ccc(C)c2ccccc21 | 99
COc1cc2c(cc1OC)C(Nc1nc(-c3ccccc3)cs1)=NC(C)(C)C2 | 100
O=C(COc1ccccc1)N(Cc1ccccc1)c1ccccn1 | 95
COc1cccc(N/C=C(\C#N)c2nc(-c3ccccc3)cs2)c1 | 93
OC1(C(F)(F)F)CC(c2nccs2)=NN1 (stereo not given) | 102
CSc1nnc(Cc2ccccc2)c(=O)[nH]1 | 103
COc1ccccc1NCC(=O)NN | 101
CC12CCC(=O)C=C1CCC1(C)C2(C)CCC2(C)C(C(=O)CO)CCC21C (stereo not given) | 99
CCN(CC)Cc1c(O)ccc2cc(-c3nc4ccccc4[nH]3)c(=O)oc12 | 100
O=C(c1c2c(nc3ccccc13)CCCC2)N1CCOCC1 | 90
CCC(C)OC(=O)COc1ccc2c(=O)c(Oc3ccccc3Cl)coc2c1 (stereo not given) | 100
OCc1ccc(O)c2ncccc12 | 100
COc1ccc2nc(-c3ccccc3)cc(C(=O)O)c2c1 | 90
CN1C(=O)NC(c2cccnc2)C(C(=O)c2cccs2)C1(O)C(F)(F)F (stereo not given) | 100
Cc1ccc(N=Cc2ccccc2O)c(C(=O)c2ccccc2)c1 | 91
Cc1cccc(-n2cnc3sc4c(c3c2=O)CCCC4)c1 | 99
Cc1cc(OC(=O)C2COc3ccccc3O2)cc(C)c1Cl (stereo not given) | 100
CC/C=C\C/C=C\C/C=C\C/C=C\C/C=C\C/C=C\CCC(=O)O | 78
Cc1sc(/N=C/c2c[nH]c3ccccc23)c(C#N)c1C | 92
CC(C)(C)c1ccc(/C=C2/NC(=O)N(Cc3ccc(Br)cc3)C2=O)cc1 | 95
COc1ccc(C(=O)N(CC#N)CC#N)cc1 | 100
COC(=O)CCc1c(C)[nH]c(=S)[nH]c1=O | 100
Cc1ccc2nc(NCn3nc(-c4ccccc4)oc3=S)sc2c1 | 100
CN1C2CCC1CC(OC(=O)CCN1CCOCC1)C2 (stereo not given) | 85
CC(=O)Nc1nonc1N=Cc1ccc(F)cc1 | 100
Clc1ccc2nc(NC3=NCN(CCN4CCOCC4)CN3)nc(-c3ccccc3)c2c1 | 88
Cc1cccn2c(=O)c(/C=N/O)c(N3CCCCC3)nc12 | 101
CCCn1c(COc2ccccc2)nc2ccccc21 | 100
CCN(C(=S)Nc1cccnc1)c1ccccc1 | 104
CCOC(=O)c1ccc(NC(=O)CNC(=O)C23CC4CC(CC(C4)C2)C3)cc1 | 99
CC1=C(C)CC(C(=O)Nc2cccc(C)c2C)C(C(=O)O)C1 (stereo not given) | 101
O=C(Nc1cccc(Cl)c1Cl)C1CC(=O)N(Cc2ccccc2)C1 (stereo not given) | 101
Cc1[nH]c2ccccc2c1C=NCCc1ccncc1 | 99
O=C(NC(CO)Cc1ccccc1)c1ccccc1C(F)(F)F (stereo not given) | 96
O=C(NCCn1ccc2ccccc21)c1ccc(Br)o1 | 99
Cc1ccc(S(=O)(=O)N2CCC(C(=O)N3CCCC(C)C3)CC2)cc1 (stereo not given) | 100
COC(=O)NC1(C(F)(F)F)Oc2cc(Cl)c(Cl)cc2O1 | 100
CC[C@H]1CN2CCC1C[C@@H]2[C@@H](O)c1ccnc2ccc(OC)cc12 (stereo not given in full) | 100
CC1(C(=O)NC2CCCCC2)CCC(=O)N1CCc1ccccc1 (stereo not given) | 98

Given as tab-separated lines: entries from further up
Compound	VACV E9 pol inh
OCc1ccc(O)c2ncccc12	100
COc1ccc2nc(-c3ccccc3)cc(C(=O)O)c2c1	90
CN1C(=O)NC(c2cccnc2)C(C(=O)c2cccs2)C1(O)C(F)(F)F (stereo not given)	100
Cc1ccc(N=Cc2ccccc2O)c(C(=O)c2ccccc2)c1	91
Cc1cccc(-n2cnc3sc4c(c3c2=O)CCCC4)c1	99
Cc1cc(OC(=O)C2COc3ccccc3O2)cc(C)c1Cl (stereo not given)	100
CC/C=C\C/C=C\C/C=C\C/C=C\C/C=C\C/C=C\CCC(=O)O	78
Cc1sc(/N=C/c2c[nH]c3ccccc23)c(C#N)c1C	92
CC(C)(C)c1ccc(/C=C2/NC(=O)N(Cc3ccc(Br)cc3)C2=O)cc1	95
COc1ccc(C(=O)N(CC#N)CC#N)cc1	100
COC(=O)CCc1c(C)[nH]c(=S)[nH]c1=O	100
Cc1ccc2nc(NCn3nc(-c4ccccc4)oc3=S)sc2c1	100
CN1C2CCC1CC(OC(=O)CCN1CCOCC1)C2 (stereo not given)	85
CC(=O)Nc1nonc1N=Cc1ccc(F)cc1	100
Clc1ccc2nc(NC3=NCN(CCN4CCOCC4)CN3)nc(-c3ccccc3)c2c1	88
Cc1cccn2c(=O)c(/C=N/O)c(N3CCCCC3)nc12	101
CCCn1c(COc2ccccc2)nc2ccccc21	100
CCN(C(=S)Nc1cccnc1)c1ccccc1	104
CCOC(=O)c1ccc(NC(=O)CNC(=O)C23CC4CC(CC(C4)C2)C3)cc1	99
CC1=C(C)CC(C(=O)Nc2cccc(C)c2C)C(C(=O)O)C1 (stereo not given)	101
O=C(Nc1cccc(Cl)c1Cl)C1CC(=O)N(Cc2ccccc2)C1 (stereo not given)	101
Cc1[nH]c2ccccc2c1C=NCCc1ccncc1	99
O=C(NC(CO)Cc1ccccc1)c1ccccc1C(F)(F)F (stereo not given)	96
O=C(NCCn1ccc2ccccc21)c1ccc(Br)o1	99
Cc1ccc(S(=O)(=O)N2CCC(C(=O)N3CCCC(C)C3)CC2)cc1 (stereo not given)	100
COC(=O)NC1(C(F)(F)F)Oc2cc(Cl)c(Cl)cc2O1	100
CC[C@H]1CN2CCC1C[C@@H]2[C@@H](O)c1ccnc2ccc(OC)cc12 (stereo not given in full)	100
CC1(C(=O)NC2CCCCC2)CCC(=O)N1CCc1ccccc1 (stereo not given)	98

(further entries)
SMILES | VACV E9 pol inh
CN1C(=O)C2C(N=CN2CCCO)N(C)C1=O (stereo not given) | 100
CCc1ccc(OC(=O)c2ccc(Br)o2)cc1 | 102
N#CCOc1ncn(-c2ccccc2)n1 | 107
CCOC(=O)c1c(-c2ccccc2)csc1NC(=O)/C=C/c1ccco1 | 100
CC(C)(C)c1ccc(C(=O)NN)s1 | 100
Cc1cccc(-n2c(SCC(=O)NCc3ccccc3)nc3c(oc4ccccc43)c2=O)c1 | 97
O=C(c1ccccc1)c1ccccc1C(=O)N1CCc2ccccc2C1 | 101
COc1ccc(N2CCN(CCCNS(=O)(=O)c3c(C)noc3C)CC2)cc1 | 98
Cc1ccc(Cl)cc1NC(=O)COC(=O)Cc1ccc(Cl)cc1 | 95
COc1ccc2c(c1)nc(SCC(C)O)n2C (stereo not given) | 103
COc1ccc(C2C=C(c3ccccc3)NC(=S)S2)cc1OC (stereo not given) | 84
O=C(O)c1cccc(Cl)c1C(=O)O | 107
COC(=O)N(c1ccc(OC)cc1)P1(=S)OCCC(C)O1 (stereo not given) | 96
Cc1ccc(-c2ccc(/C=N/n3cnnc3)o2)cc1 | 100
CC(=O)N(CC(=O)Nc1ccc(C)cc1)c1ccccc1 | 94
CC(=O)N[C@@H](CCC(=O)O)C(=O)O | 100
CN(C)CCC(=O)c1ccco1 | 100
COc1ccc(CNc2ccccn2)cc1OC | 99
CCOC(=O)C1=NN(c2ccccc2)C2(C(=O)c3ccccc3C2=O)C1c1ccc(C)cc1 (stereo not given) | 107
Cn1c(=O)c2c(SCC(=O)N3CCCc4ccccc43)nc(-c3cccs3)nc2n(C)c1=O | 108
CC1CC(C)CN(CCCNC(=O)c2ccc3c(c2)N(C)C(=O)/C(=C/c2ccccc2F)S3)C1 (stereo not given) | 102
